NPYLR7 ag – agonists of mosquito NPYLR7 receptor, primary screen, cell-based, Aedes aegypti, calcium fluorescence, mosquito biting behavior. Aedes aegypti neuropeptide Y-like receptor 7 (NPYLR7). HEK293T NPYLR7/Galpha15, GCaMP6s calcium fluorescence. activation, % at 10 µM. 270,000 tested, 0.15% active; in the data active means activation above about 40%;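 further: 0% = vehicle and 100% = reference agonist at the receptor; some compounds past the cut are filed as inactive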
NPYLR7 ag max-min – recorded beside NPYLR7 ag, whose call it bears; activation, %; measured here: Max-Min RFU normalised activation; some inactives read as strong as hits;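 span of the calcium signal over five minutes; 0% = vehicle and 100% = native peptide agonist; compound fluorescence can raise it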
Numbers without * were called inactive; & = joins results of further samples. An excerpt. The share of hits here may be higher or lower than overall.

Screening COc1ccccc1C(CC(=O)NC1CCN(Cc2ccccc2)CC1)c1cn(C)c2ccccc12 (stereo not given) returned NPYLR7 ag 11 and NPYLR7 ag max-min 14.
For CCCCCCNC(=O)c1cc(-c2ccc(OC)cc2OC)nn1-c1ccc(Cl)cc1 the results were NPYLR7 ag 17 and NPYLR7 ag max-min 20.
Screening C=CCCC(O)CN(CCN1CCOCC1)Cc1nc2scc(-c3ccc(C)cc3C)c2c(=O)[nH]1 (stereo not given) returned NPYLR7 ag -6 and NPYLR7 ag max-min 4.
`COc1ccc(-c2nc(-c3cccc(C(F)(F)F)c3)no2)c(OC)c1` gave NPYLR7 ag 1 and NPYLR7 ag max-min 0.
`COc1ccc(N2CN=C3SCC(=O)N3C2)cc1` gave NPYLR7 ag 2&-3 and NPYLR7 ag max-min 1&-3.
Screening NC(=O)c1ccc(N2CCCC2)c(NC(=O)Cc2cc(Cl)c3c(c2)OCCO3)c1 returned NPYLR7 ag -2 and NPYLR7 ag max-min 0.
`CC1CCN(C(=O)c2cc(NC(=O)COc3ccc(Cl)cc3)c(=O)n(C)c2)CC1` gave NPYLR7 ag -2 and NPYLR7 ag max-min -3.
Screening Cn1c(-c2ccc(C=O)o2)nc2c3ccccc3c3ccccc3c21 returned NPYLR7 ag -5 and NPYLR7 ag max-min -12.
Cc1ccc(C(=O)NC(C(=O)N2CCCCC2C)C2CCN(C(=O)Nc3cccc(Cl)c3)CC2)cc1 (stereo not given) was read as NPYLR7 ag 5 and NPYLR7 ag max-min 10.
For O=C(CCNCC1OCCc2ccccc21)Nc1cccnc1 (stereo not given) the results were NPYLR7 ag 1 and NPYLR7 ag max-min 2.
CC(=O)N1CCc2c(nc(C)nc2NCCCn2ccc3ccccc32)C1 was read as NPYLR7 ag 6 and NPYLR7 ag max-min 2.
For Cc1cc(C)c2c3c([nH]c2c1)CCC(NC(=O)CCc1ccc2c(c1)OCO2)C3 (stereo not given) the results were NPYLR7 ag 14 and NPYLR7 ag max-min 13.
Screening O=C(c1ccc(F)c(F)c1)N1CCN(C(c2ccccc2)c2ccc(Br)cc2)CC1 (stereo not given) returned NPYLR7 ag -2 and NPYLR7 ag max-min 5.
Screening CC(C)CCn1c(CN(C)CC2CCCCO2)cnc1S(=O)(=O)C(C)C (stereo not given) returned NPYLR7 ag 18 and NPYLR7 ag max-min 6.
Screening CCOc1cccc(C2c3c(oc4ccc(C)cc4c3=O)C(=O)N2c2nccs2)c1 (stereo not given) returned NPYLR7 ag 7 and NPYLR7 ag max-min 1.
Screening O=C(c1ccco1)N1CCN(S(=O)(=O)c2cccc(F)c2)CC1 returned NPYLR7 ag -1 and NPYLR7 ag max-min -2.
CC(C)CN1CCC1(C)C(=O)Nc1cccc(C#N)c1 (stereo not given) was read as NPYLR7 ag 4 and NPYLR7 ag max-min 1.
`COC(=O)CN1CCC(NC(=O)c2ccc3c(c2)CC(C)O3)CC1` (stereo not given) gave NPYLR7 ag 11 and NPYLR7 ag max-min 17.
`CCn1cc(CN(Cc2ccnc3ccccc23)CC(C)C)cn1` gave NPYLR7 ag 1 and NPYLR7 ag max-min 0.
CCCCOc1ccc(/C=C/c2[nH]c(=O)[nH]c(=O)c2[N+](=O)[O-])cc1OC was read as NPYLR7 ag -3 and NPYLR7 ag max-min -2.

Of the compounds above, 5 have sulfur.
Screening C=CCCC(O)CN(CCN1CCOCC1)Cc1nc2scc(-c3ccc(C)cc3C)c2c(=O)[nH]1 (stereo not given) returned NPYLR7 ag -6 and NPYLR7 ag max-min 4.
`COc1ccc(N2CN=C3SCC(=O)N3C2)cc1` gave NPYLR7 ag 2&-3 and NPYLR7 ag max-min 1&-3.
Screening CC(C)CCn1c(CN(C)CC2CCCCO2)cnc1S(=O)(=O)C(C)C (stereo not given) returned NPYLR7 ag 18 and NPYLR7 ag max-min 6.
Screening CCOc1cccc(C2c3c(oc4ccc(C)cc4c3=O)C(=O)N2c2nccs2)c1 (stereo not given) returned NPYLR7 ag 7 and NPYLR7 ag max-min 1.
Screening O=C(c1ccco1)N1CCN(S(=O)(=O)c2cccc(F)c2)CC1 returned NPYLR7 ag -1 and NPYLR7 ag max-min -2.

(continued)
CCC(CO)N(Cc1ccc(C)s1)C(=O)c1ccc(C)[nH]c1=O (stereo not given) was read as NPYLR7 ag 1 and NPYLR7 ag max-min 0.
For O=C(NCCc1cscn1)c1ccccc1OC1CCN(C(=O)c2cccnc2)CC1 the results were NPYLR7 ag 1 and NPYLR7 ag max-min -1.
For CCCn1c(=O)c2[nH]c(-c3ccc(OCC(=O)Nc4ccc(C#N)cc4)cc3)nc2n(CCC)c1=O the results were NPYLR7 ag -2 and NPYLR7 ag max-min 23.
CCS(=O)(=O)Nc1cccc(-c2ccc3nnc(-c4cccnc4)n3n2)c1 was read as NPYLR7 ag -13 and NPYLR7 ag max-min -11.
Cn1nnnc1NCc1ccc(-c2ccccc2)o1 was read as NPYLR7 ag -2 and NPYLR7 ag max-min -13.
`COCC1CCN(C(=O)C2CCC(=O)N(C3CCCC3)C2)CC1` (stereo not given) gave NPYLR7 ag 1 and NPYLR7 ag max-min -4.
O=[N+]([O-])c1cccc(C=NNc2nc3ccccc3s2)c1 was read as NPYLR7 ag -3 and NPYLR7 ag max-min -12.
Screening CCC(CC)n1c(=O)n(Cc2cncn2CC)c2cc(C(=O)O)cnc21 returned NPYLR7 ag 3 and NPYLR7 ag max-min 1.
`O=C(O)CC1(CC(=O)N2CCN3C(=O)c4cc(-c5ccsc5)ccc4NC(=O)[C@H]3C2)CCCC1` gave NPYLR7 ag -5 and NPYLR7 ag max-min -12.
Screening Cc1ccc(SCc2ccc(C(=O)N3C4CCC3CC(Oc3ccccc3C(C)C)C4)cc2)c(C)c1 (stereo not given) returned NPYLR7 ag 13 and NPYLR7 ag max-min 3.
Screening O=S(=O)(c1ccc(NCc2ccc(-n3ccnc3)cc2)cc1)C(F)F returned NPYLR7 ag 4 and NPYLR7 ag max-min 2.
`NCCCCCc1nc(-c2cccs2)no1` gave NPYLR7 ag 1 and NPYLR7 ag max-min 0.
Screening CCCN(CC(=O)N(CCc1c[nH]c2ccccc12)Cc1ccc(C(F)(F)F)cc1)C(=O)Nc1ccccc1OC returned NPYLR7 ag 14 and NPYLR7 ag max-min 18.
Screening COCCn1c(C(=O)NCC(=O)c2ccccc2)cc2c(=O)n(C)c(=O)n(C)c21 returned NPYLR7 ag -1 and NPYLR7 ag max-min -1.
For O=C(Nc1ccc(Cl)cc1)c1ccc(N2CC3CC(C2)c2cccc(=O)n2C3)c(NC(=O)c2ccc(Br)o2)c1 (stereo not given) the results were NPYLR7 ag -5 and NPYLR7 ag max-min 1.
CCOc1ccc(OCCSc2nc3ccccc3n2CCO)cc1 was read as NPYLR7 ag 3 and NPYLR7 ag max-min -4.
`COc1ccc(C(=O)NC(C(=O)N2CCCC2)C2CCN(C(=O)c3cccc(C)c3)CC2)cc1` (stereo not given) gave NPYLR7 ag 6 and NPYLR7 ag max-min 6.
For N#Cc1ccccc1NC(=O)CN(Cc1ccco1)C1CCS(=O)(=O)C1 (stereo not given) the results were NPYLR7 ag -2 and NPYLR7 ag max-min -1.
Screening CCCc1ccc(-c2nccn2CCOC)o1 returned NPYLR7 ag 7 and NPYLR7 ag max-min 0.
For Cc1ccc(NC(=O)c2nnn(Cc3nc(-c4ccccc4)oc3C)c2C)c(C)c1 the results were NPYLR7 ag 3 and NPYLR7 ag max-min 0.

Pulled by compound from above, 2 records:
CCS(=O)(=O)Nc1cccc(-c2ccc3nnc(-c4cccnc4)n3n2)c1 was read as NPYLR7 ag -13 and NPYLR7 ag max-min -11.
O=[N+]([O-])c1cccc(C=NNc2nc3ccccc3s2)c1 was read as NPYLR7 ag -3 and NPYLR7 ag max-min -12.

Following part:
CCCN(Cc1cc(NC(=O)C2CCCC2)ccc1N(C)C)C(=O)c1cccc(C)c1 was read as NPYLR7 ag 33 and NPYLR7 ag max-min 35.
Screening O=S1(=O)CCN2C=C(Br)C=C(Br)C2=N1 returned NPYLR7 ag 15 and NPYLR7 ag max-min 6.
For CCc1ccc(-c2cc(C(=O)N3CCNC(=O)C3CCO)[nH]n2)cc1 (stereo not given) the results were NPYLR7 ag -4 and NPYLR7 ag max-min -5.
For c1ccc(-c2noc(C3COCCO3)n2)nc1 (stereo not given) the results were NPYLR7 ag 1 and NPYLR7 ag max-min 0.
`COc1ccccc1C1=NN(C(=O)CN2CCOCC2)C(c2cccc(F)c2)C1` (stereo not given) gave NPYLR7 ag -3 and NPYLR7 ag max-min 5.
O=C(Nc1ccc(F)cc1)C1CCN(c2nc(Cc3ccccc3)ns2)CC1 was read as NPYLR7 ag 12 and NPYLR7 ag max-min 16.
Cc1csc(CNC(=O)C(OC2CCCC2)c2ccccc2)n1 (stereo not given) was read as NPYLR7 ag 1 and NPYLR7 ag max-min -1.
Screening O=C(CN1CN(c2ccccc2)C2(CCN(C(=O)C3CCC3)CC2)C1=O)NC1CCCCC1 returned NPYLR7 ag 25 and NPYLR7 ag max-min 24.
`O=C(NCc1ccc(Cl)cc1)c1cc(N2CCN(c3cccc(C(F)(F)F)c3)CC2)nc2ccccc12` gave NPYLR7 ag -16 and NPYLR7 ag max-min -17.
For CCN(CC)c1ccc(NC(=O)CSc2n[nH]c(C)n2)cc1 the results were NPYLR7 ag -6 and NPYLR7 ag max-min -6.
For Fc1cc2nc(CCl)[nH]c2cc1F the results were NPYLR7 ag 3 and NPYLR7 ag max-min 3.
For CCOC(=O)c1cc(-c2ccc(N3CCN(C(=O)c4cc(C)oc4C)CC3)cc2)n(-c2ccccc2Cl)n1 the results were NPYLR7 ag 26 and NPYLR7 ag max-min 14.
`Cc1sc(C(=O)N2CCOC(C(N)=O)C2)cc1-c1ccc(F)cc1` (stereo not given) gave NPYLR7 ag 4&-24 and NPYLR7 ag max-min 2&-27.
`COc1ccc(/C=C2N=C(/C=C/c3cccc(Cl)c3Cl)OC\2=O)c(OC)c1` gave NPYLR7 ag -3 and NPYLR7 ag max-min -8.
`Cc1nn(C)c(Cl)c1CN1CC[C@@H](c2ccc(F)cc2)[C@H](O)C1` gave NPYLR7 ag 6 and NPYLR7 ag max-min 4.
For O=C(C=Cc1ccco1)NCc1ccccc1CS(=O)(=O)N1CCOCC1 the results were NPYLR7 ag 8 and NPYLR7 ag max-min 3.
CC(=O)Nc1cccc(C(=O)NC(C)c2ccc(F)cc2)c1 (stereo not given) was read as NPYLR7 ag 3 and NPYLR7 ag max-min 0.
For CCOc1ccccc1NC(=O)N1CCCN(c2nc(Cc3ccc(Cl)cc3)ns2)CC1 the results were NPYLR7 ag -2 and NPYLR7 ag max-min 12.
Screening CCc1cccc2c(C(CC(=O)NC(C)C)c3cccc(F)c3)c[nH]c12 (stereo not given) returned NPYLR7 ag -2 and NPYLR7 ag max-min 8.
Cc1c(C(=O)Nc2cccc([N+](=O)[O-])c2)oc2ccccc12 was read as NPYLR7 ag -7 and NPYLR7 ag max-min -11.
For CC(C)CCn1c(NCCCO)nc2c1c(=O)[nH]c(=O)n2C the results were NPYLR7 ag 12 and NPYLR7 ag max-min 7.
For O=C(CSc1nnc(CN2CCCCC2)o1)NC(=O)NC1CC1 the results were NPYLR7 ag 3 and NPYLR7 ag max-min 22.
Screening N#CC(C#N)=C1C(Cl)=C(N2CCCCC2)c2ccccc21 returned NPYLR7 ag -8 and NPYLR7 ag max-min -11.
For COc1cc2c(cc1NC(=O)COC(=O)C1CCCCC1)oc1ccccc12 the results were NPYLR7 ag 5 and NPYLR7 ag max-min 0.
For CC(=O)N1CCN(C(=O)CCc2c(C)nn(-c3nc(C)c(C)c(=O)[nH]3)c2C)CC1 the results were NPYLR7 ag 6 and NPYLR7 ag max-min 1.
Cc1ccc(C)c(S(=O)(=O)N2CCN(c3nccc(-c4ccc(C(C)(C)C)cc4)n3)CC2)c1 was read as NPYLR7 ag -7 and NPYLR7 ag max-min -8.
For Nc1cc(N2CCOCC2)c(S(=O)(=O)C(F)(F)F)cc1[N+](=O)[O-] the results were NPYLR7 ag 13 and NPYLR7 ag max-min 11.
For CN(c1ccccc1)S(=O)(=O)c1ccc(C(=O)Nc2sccc2C(N)=O)cc1 the results were NPYLR7 ag 1 and NPYLR7 ag max-min -3.
`COc1cc(NCCNC(=O)c2ccncc2)ncn1` gave NPYLR7 ag 7 and NPYLR7 ag max-min 2.
Cc1ccoc1C(=O)N1CCCCC1CNS(C)(=O)=O (stereo not given) was read as NPYLR7 ag 8&3 and NPYLR7 ag max-min 2&2.
For Cc1ccc(CN(CCc2ccccc2)C(=O)CN(Cc2cccc(Cl)c2)CC2CCCO2)o1 (stereo not given) the results were NPYLR7 ag 8 and NPYLR7 ag max-min 13.
CC(=O)N1CCN(CC(=O)N2N=C(c3cccc(C)c3)CC2c2ccccc2F)CC1 (stereo not given) was read as NPYLR7 ag -9 and NPYLR7 ag max-min -9.

From PubChem BioAssay
